Screens deposited in PubChem BioAssay by several laboratories.
ugtP null kill = growth inhibition of S. aureus ugtP deletion strain; hit rate 0.54% among 330,000; S. aureus RN4220 ugtP deletion, OD600 growth, 16 h; some inactives read as strong as hits; AID 1259309; growth inhibition, % (test concentration not listed);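 active means z-score under -3 and OD600 up to 0.15 on both plates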;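 further: plate controls were untreated wells for no effect and antibiotic for full effect; wells of about 80 µL received 100 nL stock; the first replicate is given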
RN4220 kill = S. aureus RN4220 growth inhibition. OD600, 16 h. inhibition, % (test concentration not listed). hit rate 0.33% among 330,000. AID 1259311;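 active means z-score of -3 or lower and OD600 up to 0.18 on both plates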;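 further: plate controls were untreated cells for no effect and reference antibiotic for full effect; stock transfer was 100 nL into about 80 µL; one replicate is shown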
PrP UTR inh = suppresses PrP 5' UTR mRNA reporter expression; cell-based PrP 5' UTR mRNA reporter, plate reader; hit rate 0.35% among 340,000; inhibition, % (test concentration not listed);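 active means every replicate at 50% or more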;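 further: 0 = median of the neutral control wells; tested in H4 reporter cells; numbers are from one replicate; inactives centre near -14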
Autofluor counter = flagged as autofluorescent in microsphere protease counterscreen. compound autofluorescence counterscreen, microsphere flow cytometry; stronger effect = higher value. fluorescence intensity (concentration not given with the values). hit rate 3.1% among 360,000. AID 624483;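 active means at least 3 SD above the mean of all compounds, about 16000 in these data; inconclusive means too few beads counted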;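 further: 100 nL of 1 mM stock went into each well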
Mtb hypoxia inh = Mtb hypoxia fluorescent reporter inhibition; M. tuberculosis hypoxia-regulated fluorescent reporter, fluorescence; fluorescence inhibition, % (concentration not given with the values); hit rate 0.1% among 300,000;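 active means 35 to 45% if threefold the growth effect, above 45% if 1.5-fold the growth effect; inactive means the rest, general growth blockers included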;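 further: wells of about 50 µL received 100 nL stock; 0% = vehicle wells and 100% = reference inhibitor wells; whole bacteria with a GFP reporter of the hypoxia response; strong numbers were not always called active; many hits fall short of the cut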
BJeLR lethal = BJeLR cell viability loss | BJeLR (HRASV12) viability, CellTiter-Glo ATP luminescence, 48 h; reference of the scale not given here | inhibition, % (test concentration not listed) | hit rate 0.17% among 300,000;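 active means replicate mean above 50%; inconclusive means above 50% but judged a plate artefact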;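 further: 50 nL library stock added to about 25 µL; numbers are from one replicate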
Mtb hypoxia inh growth = recorded beside Mtb hypoxia inh, whose call it bears; growth inhibition, %; measured here: M. tuberculosis growth (absorbance);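 0% = vehicle and 100% = reference antibiotic; read after six days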
Active calls of the source: *; ? = inconclusive; . = not tested or not shown. This is a random part of the collection (roughly 4% active in at least one column).

SMILES	ugtP null kill	RN4220 kill	PrP UTR inh	Autofluor counter	Mtb hypoxia inh	Mtb hypoxia inh growth	BJeLR lethal
COc1ccc(Cl)cc1NC(=O)CCN1C(=O)NC(C)(C)C1=O	2	3.9	-16	5666	9	8	.
CCSc1nnc(NC(=O)[C@@H](NC(=O)c2cccc(C)c2)C(C)C)s1	.	.	-6	9462	.	.	9
CCOC(=O)c1sc2nc(SC)nc(-c3ccccc3)c2c1N	-5	0.4	-15	3699	11	22	2
Cc1nc2ccc([N+](=O)[O-])cc2c(=O)n1Cc1ccc(Cl)cc1	4	1.8	-5	3789	-6	0	-6
CC[C@@]1(C(=O)OC)N[C@H](CN(C)C(=O)c2ccccc2)[C@@H]2C(=O)N(Cc3ccccc3)C(=O)[C@@H]21	-1	1.6	-14	3701	3	10	.
O=C(O)C1CCCN(CCC=C(c2ccccc2)c2ccccc2)C1 (configuration not stated)	3	5.6	-21	5218	-2	9	1
CCC(=O)Nc1c2c(nn1-c1ccc(C)cc1)CS(=O)(=O)C2	1	2.2	-1	5877	0	0	-5
CC12CCC(C(=O)N3CCN(Cc4ccccc4)CC3)(OC1=O)C2(C)C (configuration not stated)	16	6.5	-25	8839	3	2	1
Cc1cc(C)c2nc(NC(=O)c3ccco3)sc2c1	-7	0.3	-21	5860	1	2	2
Cn1cccc1Cc1nnc(SCC(=O)N2CCCCCC2)n1CCc1ccccc1	15	2.0	-16	6038	.	.	-10
Cc1ccc(Oc2ccc(NC(=O)CSc3n[nH]c(N)n3)cc2)cc1	91*	0.7	-13	1987	2	2	-12
C=CCOc1ccc(Br)cc1CNC(C)(C)CO	3	4.1	-20	6978	16	8	0
O=C(CN1C(=O)NC2(CCCC2)C1=O)NC(c1ccccc1)c1ccccc1	-5	-3.8	-29	3442	-18	7	.
CN1CCN(C2=Cc3ccc(Cl)cc3Sc3ccc(F)cc32)CC1	-20	20	-20	3033	.	.	-4
COc1ccc(C(C)=O)cc1CC(=O)Nc1ccc2c(c1)CCC2	3	-0.7	-10	4032	-3	-13	-2
O=S(=O)(c1ccc(Cl)cc1)c1nc(-c2ccccc2F)oc1NCCN1CCOCC1	7	4.6	-12	5579	1	2	2
Cc1ccc2c(c1)sc1nc(=O)n(-c3ccc(Cl)c(Cl)c3)c(=O)n12	-31	-1.9	-27	22447*	5	6	.
O=C(NCc1ccco1)c1cnccn1	1	-8.4	-15	3774	.	.	-20
Cc1ccc(-c2n[nH]c(=S)n2/N=C/c2ccc(C)s2)cc1	.	.	66*	4207	.	.	-3
COC(=O)c1ccc(N=C(c2ccccc2)c2c(O)n(C)c(=O)n(C)c2=O)cc1	5	1.8	-15	6228	-7	-3	12
O=C1CCCc2c1sc1nc3n(c(=O)c21)CCCCC3	1	1.1	-51	3011	.	.	4
Cc1cccc(COC(=O)C(Cc2ccccc2)NC(N)=O)c1 (configuration not stated)	-1	9.6	-13	5751	-7	0	-2
O=C(Nc1ccccc1O)c1ccc([N+](=O)[O-])cc1	3	1.8	-18	3055	-3	5	-3
COc1ccc(Cl)cc1NC(=O)CSc1nc(N2CCCCC2)nc(N2CCCCC2)n1	-5	-4.3	-36	4739	.	.	13
CC(=O)N1c2ccc(S(=O)(=O)N3CCC(C(=O)NC4CCCC(C)C4C)CC3)cc2CC1C (configuration not stated)	-20	-2.0	-11	5163	-13	-2	2
(cont.)
SMILES	ugtP null kill	RN4220 kill	PrP UTR inh	Autofluor counter	Mtb hypoxia inh	Mtb hypoxia inh growth	BJeLR lethal
Cc1cc(C(=O)NCC2CCCCC2)ccc1[N+](=O)[O-]	6	-3.2	-29	6099	.	.	-12
O=C(CN(C(=O)CNC(=O)c1cccs1)c1cccc(F)c1)NC1CCCC1	4	5.3	-17	3380	13	1	-2
COC(=O)C1=C(c2ccc(OCc3ccccc3)cc2)CC2CCC1N2C(=O)NCc1ccc([N+](=O)[O-])cc1 (configuration not stated)	33	-9.9	.	.	7	2	.
CC(C)(C)OC(=O)NCCCCCNC(=O)c1nc[nH]c1C(=O)NCCCCCNC(=O)OC(C)(C)C	1	5.5	0	2800	-4	0	.
Cc1c(C(=O)Nc2ccc3oc(-c4cccnc4)nc3c2)oc2ccccc12	-4	7.8	-25	6264	18	20	0
Cc1ccc(NC(=O)C2CCN(c3ncnc4c3nc3n4CCCCC3)CC2)nc1	-8	-3.9	2	5114	-5	9	-4
CN1C(=O)NC(c2ccc(O)cc2)C2=C1CN(c1cccc3ccccc13)C2=O (configuration not stated)	1	1.9	-8	4710	2	10	-10
N#Cc1ccccc1OCC(=O)NC(N)=O	4	2.3	-27	2949	.	.	-6
CCC1CCCCN1C(=O)c1ccc(OC2CCN(C(=O)C3CC3)CC2)cc1 (configuration not stated)	0	6.5	-28	2613	6	5	3
CN(Cc1cccs1)C(=O)CCc1ccc(S(=O)(=O)N2CCOCC2)cc1	4	0.3	-1	3435	9	2	-5
COc1ccccc1-c1ccc(SCc2ccc([N+](=O)[O-])cc2)nn1	-2	26	-17	4301	-7	-1	12
COc1ccc2nc(CC(C)(C)CC(=O)O)c[n+]([O-])c2c1	-4	2.2	-13	.	8	2	-8
CCCCn1c(N)c(N(CCOC)C(=O)Cn2c(=O)oc3ccccc32)c(=O)[nH]c1=O	7	4.7	-31	.	8	2	8
CCN(CC)C(=O)CSc1nc2ccccc2c(=O)[nH]1	-5	-15	-7	2612	11	4	-2
CCOc1cccc(-c2c(C(=O)NN=C(C)c3ccccn3)nnn2-c2nonc2N)c1	-17	5.5	.	.	-5	6	.
C/C(=N/NS(=O)(=O)c1ccccc1)c1ccc(Cl)cc1	.	.	-22	5160	.	.	-3
CC(C)(C)c1ccc(C(=O)NCC(=O)OCC(=O)N2CCCC2)cc1	3	0.7	5	4639	18	2	.
COc1ccc(C)cc1NC(=O)Nc1cccc(C)c1	18	1.2	-30	2169	12	11	3
Clc1ccc(-c2csc(N/N=C\c3cccnc3)n2)cc1	.	.	-21	2432	.	.	4
CCCCCn1c(NCc2ccco2)nc2ccccc21	4	-2.8	-9	7179	10	7	1
O=C(Nc1cccc([N+](=O)[O-])c1)c1ccc2c(c1)OCO2	-1	0.4	-37	9013	4	-1	2
COc1ccc(S(=O)(=O)NC2CCCC2)c(Cl)c1Cl	-3	2.3	.	10773	5	3	-4
CC(NC(=O)[C@H](Cc1c[nH]c2ccccc12)NC(=O)[C@@H]1Cc2ccccc2CN1)c1ccccc1 (some centres not stated)	0	4.2	-2	6041	.	.	2
O=C(Nc1nc2ccc(F)cc2s1)C1=COCCO1	11	0.3	7	.	4	-3	33
CC12CN3CC(=O)N4CC5(C)CN(CC(C)(C4)C5=O)C(=O)CN(C1)CC(C)(C3)C2=O	8	3.6	.	11323	9	6	6

Five compounds picked at random from the list so far, as already listed:
SMILES	ugtP null kill	RN4220 kill	PrP UTR inh	Autofluor counter	Mtb hypoxia inh	Mtb hypoxia inh growth	BJeLR lethal
COC(=O)C1=C(c2ccc(OCc3ccccc3)cc2)CC2CCC1N2C(=O)NCc1ccc([N+](=O)[O-])cc1 (configuration not stated)	33	-9.9	.	.	7	2	.
N#Cc1ccccc1OCC(=O)NC(N)=O	4	2.3	-27	2949	.	.	-6
CC(NC(=O)[C@H](Cc1c[nH]c2ccccc12)NC(=O)[C@@H]1Cc2ccccc2CN1)c1ccccc1 (some centres not stated)	0	4.2	-2	6041	.	.	2
O=C(Nc1cccc([N+](=O)[O-])c1)c1ccc2c(c1)OCO2	-1	0.4	-37	9013	4	-1	2
CCOc1cccc(-c2c(C(=O)NN=C(C)c3ccccn3)nnn2-c2nonc2N)c1	-17	5.5	.	.	-5	6	.

The list goes on.
SMILES	ugtP null kill	RN4220 kill	PrP UTR inh	Autofluor counter	Mtb hypoxia inh	Mtb hypoxia inh growth	BJeLR lethal
S=C1N(c2ccccc2)C(c2ccc(Cl)cc2)N2CCCN12 (configuration not stated)	0	1.2	-10	2977	.	.	-4
O=C(NCCOc1ccc(F)cc1)C1CCC(=O)N(CC2CCCCC2)C1 (configuration not stated)	13	3.5	-4	5507	-2	1	9
O=C(CS(=O)(=O)c1ccc(Cl)cc1)NCCS(=O)(=O)c1ccc(Cl)cc1	-7	-1.2	-13	4730	-4	3	7
CC(C)=CC(=O)OCC(=O)NC1CCCc2ccccc21 (configuration not stated)	.	.	-27	3538	.	.	-2
CCC(C)NC(=O)c1cn(CC)c2ccc(S(=O)(=O)N(C)C)cc2c1=O (configuration not stated)	3	-2.2	-3	5944	.	.	-4
Cc1cc(=O)[nH]c(SCC2(O)C3CC4CC(C3)CC2C4)n1 (configuration not stated)	1	-0.2	-19	3581	.	.	-6
Clc1ccc2oc(-c3ccccc3)cc(=NCCCN3CCOCC3)c2c1	-4	25	-33	3433	20	5	.
COc1ccc(C2=NN(C(=O)CSc3nc(=O)n4cc(C)ccc4n3)C(c3ccc(C)cc3)C2)cc1 (configuration not stated)	1	-1.1	-11	?	6	0	-18
Cc1cccc(-c2nnc(SCc3ccc(C#N)cc3)n2Cc2ccco2)c1	1	4.9	-17	9898	11	3	2
CC(=O)NC(=Cc1ccc2c(c1)OCO2)C(=O)NCCO	-7	5.9	.	.	4	0	.
COc1ccccc1CNC(=O)c1ccc(Cl)c(NC2=NC3CS(=O)(=O)CC3S2)c1 (configuration not stated)	5	5.7	-20	4613	2	0	-4
CCc1sc(C(=O)Nc2nc(-c3ccccn3)cs2)cc1C	1	36	19	2631	-1	9	.
COC(=O)c1cc(NC(=S)NC(=O)c2ccccc2)ccc1N1CCOCC1	25	8.1	-13	4729	3	-3	-17
CCC(=O)c1cn(CC(=O)Nc2ccccc2F)c2ccccc12	-3	1.3	-6	3895	10	-1	-4
N#Cc1cc2c(nc1Cl)CCCC2	2	5.2	-18	2459	13	2	-16
Cc1cc(S(=O)(=O)NC2CCCCC2)ccc1OCC(=O)N1CCOCC1	-11	-0.8	-67	11557	-8	7	-18
CN(Cc1ccccc1)S(=O)(=O)c1ccc(OCC(=O)N2CCOCC2)cc1	-1	2.6	-1	10995	16	5	-3
CN1CCN(C(=O)c2c(NC(=O)c3ccco3)sc3c2CCC(C(C)(C)C)C3)CC1 (configuration not stated)	-1	3.8	-21	4272	6	10	2
COc1cccc(CN2CCN(CCCc3ccccc3)C(CCO)C2)c1OC (configuration not stated)	11	2.9	-18	4337	14	0	-3
COC(=O)C1=C(C)NC(=O)CC1c1cccc(Cl)c1Cl (configuration not stated)	-11	9.4	-27	5668	10	8	-9
Clc1nc(NCCN2CCOCC2)nc(NCc2ccccc2)n1	0	2.3	-22	2022	17	2	0
COc1cc(CNC(=O)c2cc(C(=O)NCc3cc(OC)cc(OC)c3)n(C)n2)cc(OC)c1	4	-6.4	-9	?	-2	8	.
O=c1[nH]c(=S)n(CCC2=CCCCC2)c(O)c1/C=N/Nc1ccccc1	-13	-5.1	-16	3547	-13	-1	-5
COc1ccc2c(C)c(C)c(=O)oc2c1OC	-14	-0.5	-12	4470	-9	10	2
O=C(O)c1ccc(-c2nc(-c3ccc(Cl)c(Cl)c3)cs2)cc1	37	3.7	-51	2497	12	12	-3
The listing continues.
SMILES	ugtP null kill	RN4220 kill	PrP UTR inh	Autofluor counter	Mtb hypoxia inh	Mtb hypoxia inh growth	BJeLR lethal
COc1ccccc1NC(=O)c1c(C)nn(-c2ccccc2)c1Cl	2	2.6	-17	3820	1	4	-7
O=C(NCC1CCCO1)c1cccc(Oc2ccccc2)c1 (configuration not stated)	-7	-3.9	-24	5193	2	10	6
CC1=C([N+](=O)[O-])C(c2cccc(Br)c2)C2=C(N1)c1ccccc1C2=O (configuration not stated)	-30	19	54*	?	1	4	29
Cc1cccc(OP(=O)(Oc2cccc(C)c2)OC(c2ccccc2)C(F)(F)F)c1 (configuration not stated)	-3	-3.0	-2	2118	12	7	4
COc1cccc(C2c3[nH]c4ccccc4c3C[C@H]3C(=O)N(CCCOC(C)C)CC(=O)N23)c1 (some centres not stated)	-3	0.8	-15	3802	-7	8	-3
O=C(Cc1ccccc1F)Nc1cc(S(=O)(=O)N2CCOCC2)ccc1N1CCCC1	-7	-0.8	.	3023	-11	2	.
O=C(NCCN1CCN(Cc2ccccc2)CC1)C1c2ccccc2C(=O)N2CCc3ccccc3C12 (configuration not stated)	4	1.0	0	4359	-7	0	0
O=C1C2CCCN2C(=O)N1CCCCN1CCN(c2ccccc2)CC1 (configuration not stated)	8	3.9	-16	10281	8	-2	15
CC(=O)C1=C(O)C(=O)N(CCCO)C1c1ccccc1 (configuration not stated)	0	8.1	-11	12696	3	5	-4
